UCH37 inh – blocks the human deubiquitinase UCH37; inhibition, % (test concentration not listed); purified proteasome/UCH37, Ub-AMC cleavage fluorescence; 330,000 tested, 0.33% active;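 active = mean of two replicates above 20%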;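 note: 0% = compound-free wells with enzyme and 100% = wells lacking proteasome; stock transfer was 100 nL into about 20 µL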
Target sequence (Q9Y5K5 whole entry, looked up): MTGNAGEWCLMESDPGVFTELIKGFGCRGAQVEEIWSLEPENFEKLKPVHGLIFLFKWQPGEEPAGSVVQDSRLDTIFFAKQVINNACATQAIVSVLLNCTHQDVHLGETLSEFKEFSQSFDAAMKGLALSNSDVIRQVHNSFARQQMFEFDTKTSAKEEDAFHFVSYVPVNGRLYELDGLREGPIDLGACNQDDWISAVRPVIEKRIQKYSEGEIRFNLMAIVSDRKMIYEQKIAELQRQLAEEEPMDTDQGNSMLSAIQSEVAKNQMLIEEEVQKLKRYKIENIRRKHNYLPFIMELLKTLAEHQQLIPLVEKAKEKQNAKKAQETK
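System: Proteasome-associated human UCH37 deubiquitinase; Input: 0.15 nM proteasome in added enzyme buffer; Also added: Ub-AMC substrate from 1 µM stock; Incubation: 30 min compound-proteasome preincubation then 25 min substrate reaction, room temperature; Detection: fluorescence, ex 355 nm, em 460 nm; Read-out: % inhibition of Ub-AMC cleavage fluorescence; Benchmarks: no-proteasome and no-compound wells.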
LANA-H2A inh – blocks KSHV LANA binding to histone H2A/H2B. inhibition, % (test concentration not listed). 320,000 tested, 0.6% active. Q9QR71. cell-free LANA-H2A/H2B peptide, fluorescence polarization; in the data active = inhibition mostly above about 10%, no sharp cut-off; inactive = mostly below about 6.7%;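 note: stock transfer was 7.5 nL into about 10 µL; 0% = median of vehicle wells and 100% = median of positive control wells; one replicate is shown; the record names a cut of 25% in any replicate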
Calb FLC – affects C. albicans growth with fluconazole; 300,000 tested, 0.57% active; growth inhibition, % (test concentration not listed); C. albicans CaCi-2 (fluconazole-resistant clinical isolate) + fluconazole, Alamar Blue growth, 48 h; AID 1979;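 active = most replicates above 75%; inconclusive = exactly half above 75%; inactive = most below 75%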;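 note: all wells also contain fluconazole at 8 µg/ml as a sub-toxic cotreatment; 0% = median of DMSO wells and 100% = median of geldanamycin control wells; wells of about 8 µL received 7.5 nL stock; the first replicate is given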
T cruzi repl – blocks replication of Trypanosoma cruzi; 300,000 tested, 1.4% active; inhibition, % (no concentration beside the values); AID 1885; T. cruzi beta-gal in NIH3T3, luminescence, 90 h;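 active = mean inhibition across valid replicates above about 55%, limit read from the data; inconclusive = mean below that limit but half or more replicates reach it; inactive = mean below it, under half of replicates reach it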;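 note: signal also drops with host cell toxicity which is not excluded here; 0% = plate median of DMSO wells and 100% = zero luminescence signal; higher percent means less beta-gal luminescence so fewer parasites; stock transfer was 50 nL into about 50 µL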
Beta apoptosis – blocks beta cell apoptosis; INS-1E cytokine-induced death, ATP luminescence, 48 h; percent of positive-control rescue, neutral wells zero; protection from apoptosis, % (concentration not given with the values); 300,000 tested, 0.8% active;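 active = all replicates at 75% or more, or half of them and the mean; inconclusive = half reach 75% but not the mean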;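 note: 0% = cytokine-treated negative control wells and 100% = positive control rescue; higher means more ATP so stronger rescue from cytokine killing; wells of about 40 µL received 100 nL stock; the first replicate is given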
Beta2AR agonist – activates human beta-2 adrenergic receptor causing internalization; P07550; Am2.2-beta2AR cells, FAP receptor internalization, flow cytometry; reference of the scale not given here; response, % (no concentration beside the values); 340,000 tested, 0.43% active; AID 504454;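 active = response above a set limit, near 3 SD of response in nonfluorescent compounds, cut at about 42% in these data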;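 note: stock transfer was 100 nL into about 11 µL; a reference agonist was the positive control; negative values mostly stem from fluorescent compounds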
Target sequence (P07550 whole entry, looked up): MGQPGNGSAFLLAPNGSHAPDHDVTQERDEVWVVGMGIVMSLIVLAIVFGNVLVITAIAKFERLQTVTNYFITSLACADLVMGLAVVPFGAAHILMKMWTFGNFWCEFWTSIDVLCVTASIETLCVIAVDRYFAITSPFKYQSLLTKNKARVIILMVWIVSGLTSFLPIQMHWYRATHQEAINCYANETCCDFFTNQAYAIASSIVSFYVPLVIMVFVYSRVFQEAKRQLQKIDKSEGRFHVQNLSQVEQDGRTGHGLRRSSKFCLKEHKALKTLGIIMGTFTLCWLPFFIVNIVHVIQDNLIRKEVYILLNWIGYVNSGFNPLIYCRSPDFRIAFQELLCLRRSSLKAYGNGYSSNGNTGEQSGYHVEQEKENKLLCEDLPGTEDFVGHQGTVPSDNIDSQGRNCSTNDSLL
RanGTP-Impb inh – disruptors of Ran-importin-beta complex formation – biochemical, FRET, CFP-Ran, YFP-importin-beta, homogeneous, primary screen. cell-free CFP-Ran/YFP-importin-beta FRET ratio. AID 2216. 300,000 tested, 1.1% active. inhibition, % (test concentration not listed);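 active = most replicates above 15%; inconclusive = exactly half above 15%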;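 note: 0% = DMSO wells and 100% = Ran loaded with GDP instead of GTP; wells of about 40 µL received 100 nL stock; the first replicate is given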
Bfl-1 A1 inh – inhibitors of the anti-apoptotic protein A1, read as caspase activation; AID 2462; MEF A1-2A-BIM cells, Caspase-Glo 3/7 luminescence, 3 h; percent of clofoctol response, vehicle zero; caspase activation, % (test concentration not listed); 330,000 tested, 0.066% active;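 active = over half of replicate activation scores above 10%, or exactly half above 10 with the replicate mean above 10; inconclusive = replicate mean below 10 yet half the replicates above 10; inactive = over half of replicates below 10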;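 note: wells of about 30 µL received 50 nL stock; many hits fall short of the cut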
Numbers without * were called inactive; ? = inconclusive; nt = no result given; & = joins results of further samples.

SMILES	UCH37 inh	LANA-H2A inh	Calb FLC	T cruzi repl	Beta apoptosis	Beta2AR agonist	RanGTP-Impb inh	Bfl-1 A1 inh
CN(C)CC(C)(C)CNS(=O)(=O)c1ccc(Cl)c(Cl)c1	4.1&1.7	-3.4&-5.0	-8.2&-2.9	43.3&37.2	-1.9	2.3&2.0	-0.8&-1.6	0.7&-0.9
CC12CC(O)C3c4ccc(O)cc4CCC3C1CCC2=O (stereo not given)	-1.5	5.2	-15.5	1.3	-14.3	8.1	-0.4	-0.3
O=C1c2ccccc2NC(c2ccc([N+](=O)[O-])cc2)N1O (stereo not given)	-0.6	-2.7	8.2	-21.8	5.5	-0.4	-1.8	0.8
Cc1cc(C(=O)NC(CC(C)C)C(=O)O)cc(C)c1[N+](=O)[O-] (stereo not given)	0.1	25.1*	9.7	-12.7	5.3	-2.9	3.2	0.2
Cc1ccc(NC(=O)CCNS(=O)(=O)c2ccc3c(c2)CCC(=O)N3)c(Br)c1	1.1	-1.3	7.1	-17.0	-2.8	1.5	0.8	-1.2
Cc1ccc(C(C)C)c(OCC(=O)NN=C2CCCC2)c1	3.3	-4.3	1.4	-7.1	-2.0	-5.2	0.0	1.3
Nc1nc(-c2c(Cl)cccc2Cl)no1	3.9	12.4	0.8	-3.0	-7.9	-0.5	-2.0	0.7
CN(CCC#N)C(=O)CSc1nnc(-c2ccco2)n1N	-0.2	1.4	17.4	3.4	-11.5	-4.5	-2.8	0.3
COc1ccc(C(=O)c2c3ccc([N+](=O)[O-])cc3[n+]([O-])n2CCCC(N)=O)cc1	4.2	1.1	35.0	36.5	7.5	-9.8	5.3	-0.1
CC(=O)c1cccc(NC(=O)Cn2cc3c(n2)CCCC3)c1	0.6	1.2	-0.8	-4.3	3.2	-6.1	?	-1.7
C[C@H](CO)N1C[C@H](C)[C@@H](CN(C)Cc2ccc(Cl)c(Cl)c2)Oc2c(NC(=O)Cc3ccccc3)cccc2C1=O	2.8	3.8	nt	nt	-8.1	12.1	nt	-1.1
COC(=O)c1ccc(OCC(O)Cn2nnc3ccccc32)cc1 (stereo not given)	1.8	6.3	10.7	-6.9	-2.8	1.0	-2.1	-0.2
COc1ccc(Cl)cc1NC(=O)CN(c1ccccc1)S(=O)(=O)N(C)C	2.7	-1.3	-0.6	16.1	-1.5	4.9	-4.2	0.0
O=C(O)Cn1nnc(-c2ccc(OCc3ccccc3Cl)cc2)n1	1.8	2.9	45.6	-8.7	-4.8	4.4	-3.1	-3.8
Cc1csc(SCC(=O)N2CCN(S(=O)(=O)c3ccc(Cl)cc3)CC2)n1	2.6	-1.8	3.1	4.9	-0.8	-6.0	-0.7	0.0
O=C(Nc1ccc(-n2nncc2-c2ccco2)cc1)c1cccc(F)c1	0.3	1.9	6.7	13.3	0.3	6.7	1.8	-0.3
C=CCN(c1ccccc1)S(=O)(=O)c1cccc(C(=O)NCC(c2ccc(F)cc2)N2CCOCC2)c1 (stereo not given)	3.2	1.7	3.8	3.5	1.6	14.7	2.5	0.3
CCNC(=S)NNC(=O)c1csc2c1CCC(C)C2 (stereo not given)	2.7	-2.6	-3.6	-5.4	-11.9	-13.5	4.7	-2.2
COC(=O)CN1C(c2ccccc2O)Nc2ccc(Br)cc2C1c1ccccc1 (stereo not given)	4.2	0.2	14.8	-8.3	-6.4	3.0	-4.8	-0.1
O=C(COC(=O)c1ccccc1Br)Nc1ccc2[nH]c(=O)[nH]c2c1	2.4	-5.4	-4.6	-9.1	3.0	4.8	-3.8	-1.0
Cc1cc([N+](=O)[O-])cc2c1NC(=O)C2(O)N1CCCCCC1 (stereo not given)	nt	1.0	17.5	17.4	-8.7	-4.5	2.7	-0.5
CCOC(=O)C1CCN(C(=O)CNS(=O)(=O)c2ccc(Br)s2)CC1	1.8	-5.3	-4.0	-6.4	-3.1	9.1	7.6	-0.3
CCCCN(CC)S(=O)(=O)c1ccc(C(=O)N(CCCN(C)C)c2nc3cc(C)cc(C)c3s2)cc1	3.3	1.9	-5.8	67.5*	43.3	36.2	-4.4	0.0
COc1ccc(OC)c(C(=O)NC(CC(N)=O)c2ccc(NCc3ccc(F)c(F)c3)c([N+](=O)[O-])c2)c1 (stereo not given)	0.5	0.3	6.9	-4.4	-1.1	-0.5	-3.4	0.9
CCN(C(=O)COC(=O)CNC(=O)c1ccc2ccccc2c1)C1CCS(=O)(=O)C1 (stereo not given)	1.0	0.9	1.8	-10.1	3.5	5.9	1.8	-0.2
C=CCn1c(N)c(C(=O)Nc2ccc(C)c(C)c2)c2nc3ccccc3nc21	0.2	0.1	-22.0	17.4	nt	3.2	5.5	-0.4
CC1CCc2c(C(=O)Oc3cccc(-n4cnnn4)c3)csc2C1 (stereo not given)	3.3	-0.6	16.4	10.3	-3.2	-4.9	4.2	-0.4
Cc1noc(C)c1COc1ccc(C(=O)Nc2nnc(CC(C)C)s2)cc1	0.2	-1.8	nt	nt	-2.8	-1.5	nt	0.0
O=C(CSc1nnc2c(n1)[nH]c1ccccc12)NCc1ccccc1F	1.7	-0.7	-6.5	7.9	5.5	-10.0	?	?
CCOC(=O)C1CCN(C(=O)COC(=O)CNC(=O)c2sc3ccccc3c2Cl)CC1	-1.0	nt	nt	nt	-8.2	1.4	nt	-0.5
O=C(NC(Cc1c[nH]c2ccccc12)C(=O)OCC(=O)c1cccc2ccccc12)c1cccs1 (stereo not given)	3.5	-6.4	-1.9	0.2	0.1	8.7	2.2	0.1
O=C(CCc1nc2ccccc2[nH]1)Nc1ccc2c(c1)OCO2	0.9	-3.9	-3.5	7.2	nt	-1.9	1.0	0.2
Cn1c(=O)[nH]c(=O)c2c1nc(Br)n2C/C=N/NC(N)=S	nt	6.9	-2.5	-22.0	0.1	nt	1.3	-0.9
CCc1nc(CNC(=O)C2CCC(=O)N(Cc3ccccc3F)C2)no1 (stereo not given)	0.5	nt	-11.5	-5.7	nt	2.8	0.7	nt
Cc1nnc(NC(=O)CSc2nnc(Cc3cccn3C)n2CCc2ccccc2)s1	5.6	-2.6	1.1	-4.4	-3.3	-6.5	1.6	-0.7
O=C(N/N=C/c1ccc(O)cc1)c1csc2c1CCCC2	nt	2.0	3.4	-9.7	-11.8	0.3	4.6	-0.7
CCCOc1ccccc1NC(=O)c1ccc([N+](=O)[O-])cc1	0.5	5.1	0.3	-7.1	1.7	-8.5	3.3	0.6
CC(=O)N(c1ccccc1C)S(=O)(=O)c1ccc(Cl)cc1	2.2	-0.6	12.2	4.3	0.4	2.3	?	-0.3
O=C(O)C1CC(c2ccccc2)=NO1 (stereo not given)	5.4	0.4	2.7	-11.2	-0.9	8.0	0.3	0.1
Cc1ccc(NC(=O)c2ccc(CNc3c(N4CCC(C)CC4)c(=O)c3=O)cc2)cc1	1.4	-1.4	4.0	-1.4	5.1	-4.7	0.2	-0.7
CCC(C)[C@H](NC(=O)NCC1CCCO1)C(=O)OC (stereo not given in full)	0.4	-4.2	-31.2	-4.0	-2.7	1.1	6.5	0.0
CN(C)Cc1ccccc1Sc1ccc2c(c1)CCCC2	4.5	0.6	-10.9	38.4	nt	7.1	2.8	-0.6
CCOC(=O)C1=C(N)Oc2c(c(=O)[nH]c3ccccc23)C1c1ccccc1 (stereo not given)	-2.0	-9.3	-16.2	2.6	-9.5	-2.5	-0.7	-0.7
Cc1c(OCC(=O)N[C@H](C(=O)O)c2ccccc2)ccc2c3c(c(=O)oc12)CCCC3	-57.7	-7.5	16.3	-13.9	-3.7	-7.2	5.3	-0.2
Cc1cc(C)n(-c2nc(Nc3ccccc3C(F)(F)F)nc(-n3nc(C)cc3C)n2)n1	0.4	-8.6	20.8	?	82.1*	27.1	-1.4	1.4
COc1ccc(S(=O)(=O)N2CCN(Cc3ccccc3)CC2)cc1OC	1.4	-0.3	-4.3	-17.8	-3.2	7.3	2.7	-0.2
Cn1c(SCC#N)nnc1-c1cccnc1	-0.3	-1.6	?	-7.4	-1.1	7.2	-0.2	0.8
CC1CC(C(F)(F)F)n2nc(C(=O)O)cc2N1 (stereo not given)	-0.4	1.8	-5.5	-5.2	-1.2	0.3	-2.2	0.3
CCN(CC)CCCN1C(=O)C(=O)/C(=C(/O)c2ccc3c(c2)OCCO3)C1c1ccco1 (stereo not given)	10.4	-2.4	-6.2	3.0	-1.8	-4.3	nt	-0.2
Cc1cc(C)n(-c2nnc(C)n2NC(=O)c2cccc(Cl)c2)n1	-1.1	2.2	34.9	3.8	5.6	-5.1	-2.1	-0.4
COc1ccc(CNC(=O)C2Cc3cc(S(=O)(=O)N4CCCC4)ccc3N2C(C)=O)c(OC)c1 (stereo not given)	0.9	-0.1	-4.0	-0.8	nt	2.4	4.5	-0.6
CN1CC(=O)N(CC(=O)Nc2ccc(F)cc2)c2ccccc2C1=O	6.4	-1.7	nt	7.2	-3.3	17.3	0.6	0.2
Cc1ccccc1C(=O)NC(=S)N(CCO)Cc1ccccc1	-0.9	-3.6	0.8	-4.4	-2.8	-9.3	2.4	-0.2
Cc1nc(N2CCCCC2)c2c(C)c(C(=O)Nc3ccc4c(c3)OCCO4)sc2n1	-1.6	-1.1	-0.6	4.3	8.9	11.5	2.1	0.5
COc1ccc(Cl)cc1NC(=S)N(Cc1ccccc1C)CC1CCC(C(=O)O)CC1 (stereo not given)	0.9	0.8	40.1	9.6	nt	5.3	1.4	1.3
CCOc1ncccc1C(=O)Nc1nnc(C(CC)CC)s1	0.6	-2.5	-22.9	19.0	8.0	-27.9	1.5	-0.1
O=C(Nc1cc(S(=O)(=O)N2CCCCC2)ccc1Cl)c1ccc(F)cc1	1.4	-0.4	nt	nt	4.2	2.1	nt	-0.6
CN1CCN(C(=O)/C(=C/c2cn(S(=O)(=O)N(C)C)c3ccccc23)NC(=O)c2ccccc2)CC1	2.2	1.0	21.7	1.6	1.7	-9.2	0.7	0.4
O=S(=O)(NC1CCCCC1)c1ccc(Cl)nc1	1.6	-0.8	-3.9	-3.6	-3.1	-1.5	3.6	0.8
O=C(Nc1cccc(C(=O)O)c1)/C(=C/c1cccc([N+](=O)[O-])c1)NC(=O)c1cccc(Br)c1	6.7	-1.1	5.8	-8.7	-4.4	-3.0	-3.0	0.6

(listing goes on)
SMILES	UCH37 inh	LANA-H2A inh	Calb FLC	T cruzi repl	Beta apoptosis	Beta2AR agonist	RanGTP-Impb inh	Bfl-1 A1 inh
Cc1ccc(NC(=O)CSc2n[nH]c(-c3ccncc3)n2)cc1C	5.0	-5.6	1.3	1.2	-0.4	6.2	0.9	0.0
CC(C)S(=O)(=O)c1csc(C(=O)Nc2ccc(F)cc2)c1N	2.8	-3.7	-5.2	-5.6	15.4	4.2	1.7	-8.8
O=C(CC12CC3CC(CC(C3)C1)C2)NC(=S)NCc1ccccc1	4.7	-1.2	-3.3	43.8	11.3	-2.4	1.1	-0.1
CSc1ccccc1-c1nnc(-c2ccccc2)o1	-4.8	-3.2	-2.1	-3.2	3.6	-12.1	1.8	-9.7
O=C(NNC(=O)c1ccccc1-n1cccc1)c1cncc(Br)c1	2.1	-1.8	nt	nt	-0.1	4.5	nt	0.8

High-throughput results deposited in PubChem BioAssay by several laboratories.

Hits appear at their usual frequency; 4.3% or so of the library scored in one or more.
